From PubChem BioAssay
Arbovirus anti: antivirals against arbovirus infection, primary screen, cell-based, full library, 10K replicate subset; arbovirus infection cell-based antiviral screen; inhibition, % at 10 µM; hit rate 0.37% among 200,000; AID 1251, 2008;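 active = inhibition from about 30%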;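 also: bluetongue infection of BSR cells; cell survival read as ATP light after 72 h; 0% = infected wells without compound and 100% = uninfected wells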
RecA splice inh: Mtb RecA intein splicing inhibitors, primary screen, biochemical, fluorescence, HTS | cell-free RecA intein splicing | hit rate 0.75% among 290,000 | inhibition, %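 (about 9 µM by stock and volumes)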; in the data active = inhibition above about 30%; inconclusive = no clear call, values can overlap the other calls;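 also: 0% = vehicle wells and 100% = reference inhibitor control wells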
Target sequence (P9WHJ3 whole entry, looked up, canonical isoform): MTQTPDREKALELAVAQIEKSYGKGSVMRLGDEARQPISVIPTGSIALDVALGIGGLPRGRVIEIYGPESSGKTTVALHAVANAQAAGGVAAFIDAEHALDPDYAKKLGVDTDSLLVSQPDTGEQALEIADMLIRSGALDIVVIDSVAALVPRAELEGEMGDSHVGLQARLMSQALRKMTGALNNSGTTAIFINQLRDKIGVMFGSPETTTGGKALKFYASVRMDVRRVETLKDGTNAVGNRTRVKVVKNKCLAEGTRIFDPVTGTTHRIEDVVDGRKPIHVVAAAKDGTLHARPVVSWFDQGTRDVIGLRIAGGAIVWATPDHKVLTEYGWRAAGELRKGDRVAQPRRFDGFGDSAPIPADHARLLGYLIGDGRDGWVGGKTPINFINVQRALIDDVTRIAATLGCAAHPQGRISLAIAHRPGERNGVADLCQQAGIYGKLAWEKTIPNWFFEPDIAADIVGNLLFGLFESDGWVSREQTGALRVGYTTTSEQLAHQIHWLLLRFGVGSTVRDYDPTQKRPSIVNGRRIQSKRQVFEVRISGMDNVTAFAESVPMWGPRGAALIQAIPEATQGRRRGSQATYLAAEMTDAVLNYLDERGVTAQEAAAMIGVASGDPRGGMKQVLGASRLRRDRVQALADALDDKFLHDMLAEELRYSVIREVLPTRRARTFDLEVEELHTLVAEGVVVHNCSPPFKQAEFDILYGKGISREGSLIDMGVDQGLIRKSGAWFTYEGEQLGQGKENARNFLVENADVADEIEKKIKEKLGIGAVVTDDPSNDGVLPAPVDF
YopH PTP inh: YopH tyrosine phosphatase inhibitors, primary screen, biochemical, fluorescence Ex485/Em525. hit rate 0.16% among 140,000. YopH tyrosine phosphatase [Yersinia enterocolitica]. AID 898, 2007. inhibition, %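 (about 10 µM by stock and volumes)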;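 active = inhibition of 50% or more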;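 also: controls were vehicle for no effect and minimum signal wells for full effect; inactives centre near -20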
Mtb betalactam: beta-lactam sensitization of Mtb H37Rv, H37Rv; M. tuberculosis H37Rv growth with meropenem, percent inhibition; hits of this screen are not shown here; inhibition, % at 25 µM; hit rate 0.27% among 330,000; AID 434955, 2010;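 active = about 74% or more and at least 40 points above the plate without the antibiotic, then above 30% in a dose series; inconclusive = first-round hits that could not be retested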;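 also: growth measured after seven days incubation then overnight dye step; 0% = bacteria only wells and 100% = bacteria with antibiotic; twin plates without the antibiotic show which effects depend on it; some results filed as inactive read as strong as hits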
Mtb H37Rv: M. tuberculosis H37Rv growth inhibitors, H37Rv strain (AID 1626); M. tuberculosis H37Rv growth inhibition; higher % means a stronger effect; one-dose inhibition, % at 10 µM; IC50 in µM for titrated hits; hit rate 0.95% among 220,000;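 active = confirmed in a dose series; inconclusive = inhibition above 80% but not taken into the dose series; inactive = below 80% or under 30% at every dose of the series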;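 also: bacteria incubated seven days before Alamar blue readout; 0% = bacteria only wells and 100% = bacteria with antibiotic wells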
Arbovirus anti repeat: also measured in Arbovirus anti; calls as there; inhibition, %; measured here: 10K subset replicate screen; many hits read low in the repeat;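 first of two repeat runs on a subset; 0% = infected and 100% = uninfected wells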
* = called active by the depositor; ? = inconclusive; nt = not tested or not shown. Only part of the results is shown (hit frequency here may not be typical).

SMILES	Arbovirus anti	RecA splice inh	YopH PTP inh	Mtb betalactam	Mtb H37Rv	others
COc1ccc(-n2cnnc2SCC(=O)N2CCN(S(=O)(=O)c3ccccc3)CC2)cc1	-5	-3.6	2	-7	6%
O=C(O)CC/C(=N\NC(=O)c1ccccc1)c1cccs1	10	2.2	nt	-4	2%
N#Cc1ccccc1S(=O)(=O)N1CCN(CC(O)COc2ccccc2F)CC1 (centres undefined)	nt	-0.5	nt	-5	nt
Fc1ccccc1/C=N/Nc1ncnc2nc[nH]c12	-7	-7.3	-30	5	nt
CC(=O)c1sccc1NC(=O)CC(C)(C)CC(=O)O	nt	-2.6	nt	0	2%
CCSc1nc(N)c(C#N)c(-c2ccco2)c1C#N	-7	1.0	-12	3	3%
CCNC(=S)N1CCN(c2nc(-c3ccc(F)cc3)cs2)CC1	nt	0.4	nt	3	nt
CC(C)(C)C(=O)Nc1nnc(Cc2ccccc2)s1	-8	0.6	-25	-14	11%
CC1CCCN(S(=O)(=O)c2ccc([N+](=O)[O-])cc2)C1 (centres undefined)	nt	1.1	nt	-2	nt
COc1ccc(S(=O)(=O)NCCCCOc2ccc(Cl)cc2)cc1	nt	7.3	nt	14	nt
OC(CNCc1ccccc1F)COc1cccc2ccccc12 (centres undefined)	nt	1.4	nt	12	nt
O=S(=O)(NCc1ccccn1)c1cc(OCC(F)(F)F)ccc1OCC(F)(F)F	nt	-0.4	nt	-3	-6%
N=c1c2c3c(sc2ncn1N)CCCC3	7	-3.1	nt	0	-6%
O=C(NNC(=O)C1CCN(S(=O)(=O)c2ccccc2)CC1)c1ccccc1O	nt	2.7	nt	-8	nt
Cc1cc(=O)oc(C)c1C(=O)N1CCN(Cc2ccc3c(c2)OCO3)CC1	12	-0.8	-42	7	-2%
O=C(Nc1cccc(Cl)c1)c1ccc(Cn2cc(Cl)cn2)cc1	-20	2.2	-17	60	70%
CCS(=O)(=O)N1Cc2ccccc2CC1C(=O)Nc1ccc(OC)cc1 (centres undefined)	3	3.4	nt	-6	11%
O=C(c1cccc(C(F)(F)F)c1)C1CCCN(C(=O)/C=C/c2cnc[nH]2)C1 (centres undefined)	nt	2.9	nt	4	nt
Clc1ncn(C23CC4CC(CC(C4)C2)C3)n1	-9	-0.8	-36	0	-4%
COC(=O)Cc1[nH]n(-c2nc3ccccc3s2)c(=O)c1C(C)=Nc1ccc(OC)cc1	nt	4.7	nt	10	35%
COc1ccc(OC)c(C2C(C(=O)c3cccs3)=C(O)C(=O)N2c2cc(C)on2)c1 (centres undefined)	1	-0.4	15	-7	10%
O=C(Nc1ccccc1Cl)c1ccc(COc2ccc3c(c2)CCC3)cc1	-1	-0.6	-17	1	1%
Cc1nn(CC(=O)N2CCCCC2)c(=O)c2nn(-c3ccccc3)c(C)c12	nt	0.8	nt	-4	nt
O=Cc1s/c(=N\S(=O)(=O)c2ccccc2)n(CCCCl)c1Cl	-40	95*	nt	nt	0%
O=C(CN1CCN(C/C=C/c2ccccc2)CC1)Nc1ccccc1C(=O)NC1CC1	nt	-1.9	nt	-6	-1%

Carrying on.
SMILES	Arbovirus anti	RecA splice inh	YopH PTP inh	Mtb betalactam	Mtb H37Rv	others
CC(C)C(=O)Nc1nc2cc3c(cc2s1)OCCO3	nt	0.9	nt	-2	-6%
COc1cccc(CNC(=O)N[C@@H](CC(C)C)C(=O)O)c1	-3	-2.5	-29	-2	-3%
Cc1ccc(CNC(=O)CC2(CC3=NS(=O)(=O)c4ccccc4N3)CCCC2)cc1	nt	5.5	nt	-2	nt
CCOC(=O)Cn1nc(NC(=O)COc2ccc(F)cc2)cc1C	nt	-1.8	nt	3	nt
COc1ccc(CCC(C)NCc2cccc(Br)c2)cc1 (centres undefined)	nt	0.9	nt	-9	nt
O=C(O)C(Cc1cnc[nH]1)NS(=O)(=O)c1ccc(Br)cc1 (centres undefined)	nt	-2.1	nt	-1	nt
CCn1nc(C)cc1C(=O)OCC(=O)c1ccc(Cl)cc1	nt	0.8	nt	2	nt
CCc1ccc(N2C(=O)C3CCCN3C2=S)cc1 (centres undefined)	nt	2.7	nt	1	nt
COc1ccc(C2CC(c3cccs3)=NN2C(=O)COC(=O)C2CCCCC2)cc1OC (centres undefined)	10	7.8	nt	-2	-1%
COCC(=O)N1CCC(n2nnc3cc(F)ccc32)CC1	4	nt	-40	-2	-9%
CS(=O)(=O)NCc1ccc(C(=O)NC2CCCCC2)cc1	11	0.8	8	-2	-8%
Cc1cccc(OCc2nnc(SCC(=O)NC3CCCC3)n2C)c1	nt	-1.8	nt	-8	nt
COC(=O)c1cc(NS(=O)(=O)c2ccc(N3CCC(C)CC3)c([N+](=O)[O-])c2)cc(C(=O)OC)c1	6	3.2	-18	1	-4%
C=CCSc1nnc(CNS(=O)(=O)c2ccc(C)cc2)n1C	nt	0.8	nt	3	nt
CN(C)c1cccc(C(=O)N2CCCC(CCC(=O)NCc3ccccc3F)C2)c1 (centres undefined)	nt	-0.6	nt	0	nt
O=[N+]([O-])c1ccc(O)c(C=Nc2ccc3nc(-c4ccccc4)[nH]c3c2)c1	-15	4.1	-24	10	7%
COCCn1c(=O)[nH]c(=O)c2cc(C(=O)c3cc(OC)ccc3O)cnc21	1	-4.6	-6	-2	-6%
C/C(=N\NC(=O)c1cccc(C)c1O)c1ccc(NC(=O)Cc2ccccc2)cc1	nt	-1.9	nt	84	nt
COc1cccc(NC(=O)CN(C)C(=O)/C=C/c2ccc3ccccc3n2)c1	nt	-4.1	nt	-6	nt
COc1cccc(OCC(=O)NN=C2c3ccccc3-c3ccccc32)c1	-13	-0.6	-22	1	-5%
CCC(C(=O)O)n1nnc(-c2ccc(-c3ccc(OC)cc3)cc2)n1 (centres undefined)	1	3.1	6	13	-7%
Cc1cc(N=Cc2c(O)ccc3cc(Br)ccc23)no1	55*	11	-26	-2	-8%
COCCCNC(=O)[C@H](CSCc1ccccc1)N1Cc2ccccc2C1=O	nt	1.3	nt	-5	-4%
COC(=O)c1cc(OC)c(OC)cc1N=CC1=C(O)CC(C)(C)CC1=O	1	1.2	-42	0	1%	Arbovirus anti repeat=1
COc1cc([N+](=O)[O-])ccc1NC(=O)COC(=O)c1n[nH]c2ccccc12	5	-1.5	-8	51	-1%

Two entries drawn at random from those above:
SMILES	Arbovirus anti	RecA splice inh	YopH PTP inh	Mtb betalactam	Mtb H37Rv	others
COc1cccc(OCC(=O)NN=C2c3ccccc3-c3ccccc32)c1	-13	-0.6	-22	1	-5%
CCc1ccc(N2C(=O)C3CCCN3C2=S)cc1 (centres undefined)	nt	2.7	nt	1	nt

Returning to the listing, repeating the two entries before the break.
SMILES	Arbovirus anti	RecA splice inh	YopH PTP inh	Mtb betalactam	Mtb H37Rv	others
COC(=O)c1cc(OC)c(OC)cc1N=CC1=C(O)CC(C)(C)CC1=O	1	1.2	-42	0	1%	Arbovirus anti repeat=1
COc1cc([N+](=O)[O-])ccc1NC(=O)COC(=O)c1n[nH]c2ccccc12	5	-1.5	-8	51	-1%
CCO[C@@H]1OC(C(N)=O)=C[C@H](C(C)(C)C)[C@H]1CCCO	nt	-2.8	nt	0	-5%
NCCCC[C@@H]1NC(=O)c2cc([N+](=O)[O-])cc(F)c2NCCCC[C@@H](C(N)=O)NC(=O)[C@H](CCC(N)=O)NC1=O	-6	2.3	-18	-1	5%
CCC(C)[C@H](NC(=O)NCc1ccccn1)C(=O)OC (some centres undefined)	4	-3.2	-52	16	-5%
O=C(N/N=C/C=C\c1ccccc1[N+](=O)[O-])c1ccncc1	-2	-3.7	nt	95	?
CC(C)(C)C(=O)CNCC(=O)C(C)(C)C	2	-1.9	nt	2	-9%
CC1=C(C#N)C(NC(=O)c2ccc(C)cc2)(C(F)(F)F)C(=O)N1 (centres undefined)	6	1.5	-33	-5	nt
O=C(Nc1ccccn1)c1ccc(-c2ccccc2)cc1	nt	-0.8	nt	5	nt
COc1ccc(-c2noc(CCC(=O)NCc3cc(Br)ccc3OC)n2)cc1	12	-0.5	-5	-3	4%
c1cnc(NC2C3CC4CC(C3)CC2C4)nc1 (centres undefined)	5	-0.8	-28	6	-8%
O=C(COC(=O)C1=COCCO1)Nc1cccc(Oc2ccccc2)c1	0	2.0	6	93	79%
COc1ccc(NC(=O)Nc2c(C)n(C)n(-c3ccccc3)c2=O)c(OC)c1	nt	1.1	nt	-6	nt
CCc1ccc(NC(=S)N2CCCCCCC2)cc1	20	3.9	nt	-2	-2%
Cc1ccccc1Cn1ccc(NC(=O)c2cc3nc(-c4ccco4)cc(C(F)(F)F)n3n2)n1	5	-34	-23	-6	2%
Cn1cccc1C(=O)NC(=O)COC(=O)c1cc(Cl)ccc1[N+](=O)[O-]	nt	nt	nt	2	-7%
CC[C@H](C)[C@@H](CN[C@H](CCCCNC)CNC)NCC1CCCC1	nt	-1.0	nt	-4	nt
Cc1cc(C)c(S(=O)(=O)NCc2cn3c(C)csc3n2)cc1C	8	-0.9	-28	-2	-5%
COc1ccccc1N1CCN(/N=C(\C)c2ccccc2O)CC1	nt	-2.4	nt	-12	nt
O=c1cc(CSc2nnnn2-c2ccccc2)nc2scc(-c3ccccc3)n12	8	0.9	-14	1	7%
COC(=O)C(Cc1c[nH]c2ccccc12)NC(=O)CNC(C)=O (centres undefined)	10	-1.3	-17	-11	-17%
COc1ccc(N2CCN(C(=O)CCS(=O)(=O)c3ccc(C)cc3)CC2)cc1	nt	-0.5	nt	-5	nt
Cc1cc(C)nc(SC(C(=O)O)c2ccccc2)n1 (centres undefined)	-8	-3.0	-16	-7	3%
Cc1ccc(-c2nc3c(=O)n(-c4ccccc4)c4c(c(=O)n(C)c(=O)n4C)c3o2)cc1	nt	-2.3	nt	-2	10%
CCN1C(=O)[C@H]2[C@@H](c3ccc(C)cc3)N3C(=O)N(c4cccc(Br)c4)C(=O)[C@@]3(CC)[C@H]2C1=O	nt	-1.9	nt	-4	nt
COc1ccc(C(=O)CSc2nc3c(c(=O)n(C)c(=O)n3C)n2C)cc1	7	nt	nt	8	-1%
Cc1ccccc1NC(=O)C[n+]1cc(-c2ccccc2)n2c1CCC2	nt	-3.2	nt	-12	-9%

Going on with the list:
SMILES	Arbovirus anti	RecA splice inh	YopH PTP inh	Mtb betalactam	Mtb H37Rv	others
Cc1cc(C)c2oc(C(=O)Nc3ccc(S(=O)(=O)Nc4nccs4)cc3)cc(=O)c2c1	nt	-1.7	nt	13	-5%
O/N=C1\CCCc2nnc3c(c21)CCCC3	4	0.7	-33	-5	-2%
CC(NC(=O)COc1cccnc1[N+](=O)[O-])c1ccc(Cl)cc1Cl (centres undefined)	nt	0.3	nt	1	nt
Cc1ccccc1OCCNC(=O)c1ccco1	nt	1.4	nt	-9	nt
COc1ccc(N2CCN(CCCNC(=O)C3(S(=O)(=O)c4ccc(Cl)cc4)CC3)CC2)cc1	4	0.0	-20	-7	nt
Cc1c(C(=O)O)cccc1-n1c(C)cc(/C=N/Nc2ccc([N+](=O)[O-])cn2)c1C	nt	2.5	nt	45	4%
COc1cccc(C(=O)NCCN2C(=O)S/C(=C/c3cccs3)C2=O)c1OC	-7	7.8	nt	-7	-2%
COc1ccc(-c2n(Cc3ccccc3)c3ccccc3[n+]2Cc2ccccc2)cc1	-13	7.5	nt	4	11%
COc1cc2ccccc2cc1C(=O)N(CCN(C)C)c1nc2ccc(C)cc2s1	nt	3.4	nt	67	nt
Cc1nn(Cc2ccccc2)c(C)c1C(=O)Nc1ccc(N2CCOCC2)cc1	-3	-1.5	-32	0	-8%
O=C(NC(Cc1ccc2c(c1)OCO2)C(=O)NC(Cc1ccccc1)C(=O)O)c1ccccc1 (centres undefined)	4	-0.2	-12	-9	nt
CC(C)(C)c1ccc(SCCc2cccnc2)cc1	nt	5.2	nt	9	-3%
Cc1ccc(-c2nnn(Cc3nc(N)nc(N4CCOCC4)n3)n2)cc1	-1	3.3	-19	-6	-4%
Nc1c(C(=O)N/N=C/c2cccnc2)oc2nc(-c3ccccc3)cc(-c3ccco3)c12	nt	-5.8	nt	-5	6%
Cc1ccc2cc(CCNS(=O)(=O)c3ccc(F)cc3)c(=O)[nH]c2c1C	5	-1.4	nt	4	nt
C=CCn1c(C)nnc1SCC(=O)c1[nH]c(C)c(C(C)=O)c1C	0	-0.6	nt	-6	3%
COc1ccccc1N1CC(C)(C)C(=O)N(C(=O)c2ccc(C)cc2)C1=S	nt	0.6	nt	2	15%
CN(C(=O)COC(=O)/C=C/c1ccc2c(c1)OCO2)c1c(N)n(Cc2ccccc2)c(=O)[nH]c1=O	nt	3.3	nt	-8	nt
Cc1cccc(NC(=O)/C(C#N)=C\c2ccc(C(=O)O)cc2)c1	3	0.6	nt	0	-2%
NC(=O)c1cccn1Cc1ccccc1Cl	-1	-1.3	-2	5	-4%
NC1=NC(=O)S/C1=C\c1ccc(F)cc1	0	1.8	nt	-13	0%
O=C(Nc1ccc(C(=O)c2ccccc2)cc1)c1ccccc1	nt	5.6	nt	3	nt
